Assay outcomes deposited in PubChem by National Center for Advancing Translational Sciences (NCATS).
Sfp inh: Sfp phosphopantetheinyl transferase inhibition | hit rate 3.5% among 310,000 | Biochemical Sfp PPTase activity, qHTS | AID 1490 | Q9F4F7 | Potency, µM, for the others: max response, negative = inhibition, most hits filed as inhibitors; active means well fitted inhibition curve with a large enough effect; inconclusive means small, poorly fitted or top-dose-only effect, or another doubt; inactive means no such curve, though single readings can be large or run the other way;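 further: the enzyme is Sfp with the accession as filed and its product quenches rhodamine fluorescence; potency means the concentration at half of the fitted maximal effect; 0% = enzyme reaction without inhibitor and -100% = no enzyme wells; top concentration of the series not given in the record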
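Fluorescence-quenching assay: 15 nM Sfp-PPTase preincubated 15 min at room temperature with compound, then 5 uM rhodamine-CoA and 12.5 uM BHQ-2-labelled YbbR peptide added. Fluorescence (ex 525/em 598 nm) read at start and after 30 min; difference gives rate.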
gsp ag: gsp mutant agonism. hit rate 0.13% among 340,000. gsp mutant cells, cAMP HTRF, 30 min; control for the full effect not named in the record. Potency, µM (highest dose often 76.9 µM), for inactives: at the top dose activation (cAMP increase), hits mostly activators. AID 624287; active = well fitted activation curve with a large enough effect; inconclusive = small, poorly fitted or top-dose-only effect, or another doubt; inactive = no such curve, though single readings can be large or run the other way; cell line not stated here;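 further: phosphodiesterase inhibitor Ro 20-1724 added with compounds to block cAMP breakdown; potency means the concentration at half of the fitted maximal effect; nearly all actives have a fitted effect of over 60% in size; about a fifth of the inactives were tested at one dose only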
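Cells stably selected in G418 were plated at 2000/well, grown 16-24 hr, then given compounds in DMSO with the PDE inhibitor […] (300 uM solution added) for 30 min at 37C; cAMP was read by HTRF.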
ClpP mod: qHTS Assay for Activators of ClpP; AID 651965, 2013; Potency, µM (titrated, usually from 57.5 µM), inactives show at the top dose activity change, negative = active; purified B. subtilis ClpP, FRET peptide cleavage, 20 min; ATP-dependent Clp protease proteolytic subunit (Bacillus subtilis (strain 168)), P80244; hit rate 1.9% among 340,000; active = well fitted falling curve with a large enough effect; inconclusive = small, poorly fitted or top-dose-only effect; inactive = no such curve, though single readings can be large or run the other way; further: potency means the concentration at half of the fitted maximal effect; the source files actives as falling curves though it sought activators and does not explain the sign; nearly all actives have a fitted effect of over 65% in size; many hits overshoot -100%
Target sequence (P80244 whole entry, looked up): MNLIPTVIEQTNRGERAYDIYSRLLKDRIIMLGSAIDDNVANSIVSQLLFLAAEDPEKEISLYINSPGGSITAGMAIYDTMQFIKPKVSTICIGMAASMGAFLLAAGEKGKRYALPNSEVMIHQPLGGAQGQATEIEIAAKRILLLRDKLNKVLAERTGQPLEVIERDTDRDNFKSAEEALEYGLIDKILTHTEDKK
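FRET quenching reversal measured ClpP activation: 10 microg/mL B. subtilis ClpP at pH 8 with the FRET-FV decapeptide, read at 430 nm after 320 nm excitation. The 20-min minus 0-min signal was scaled between DMSO/no-enzyme wells and ADEP (5.8 microM final).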
Menin-MLL FL inh: inhibitors of human menin-MLL interaction, wild-type MLL peptide; Fluorescence polarization, fluorescein-MLL peptide displacement from menin; FP activity change, % at 61.4 µM; 290,000 tested, under 10 active; AID 1766; inconclusive = falling polarisation curve, or a change in total fluorescence; inactive = total fluorescence flat and polarisation flat or rising; no compound was filed as active; the % refers to the polarisation; negative = inhibition;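 further: % of control where 0% means no effect; inhibitors lower the polarisation; unlabelled MLL peptide was the positive control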
D2 ag: agonists of human D2 dopamine receptor (beta-arrestin); P14416; DiscoveRx PathHunter D2 beta-arrestin, luminescence, 90 min; 100% = 57 uM dopamine signal; activation, % (no concentration beside the values); hit rate 0.084% among 360,000; in the data active = activation above about 40%; inconclusive = about 15% to 40%; inactive = below about 15%; further: compound concentration not given in the record; the text of the record calls up to 30% inactive
Target sequence (P14416 whole entry, looked up): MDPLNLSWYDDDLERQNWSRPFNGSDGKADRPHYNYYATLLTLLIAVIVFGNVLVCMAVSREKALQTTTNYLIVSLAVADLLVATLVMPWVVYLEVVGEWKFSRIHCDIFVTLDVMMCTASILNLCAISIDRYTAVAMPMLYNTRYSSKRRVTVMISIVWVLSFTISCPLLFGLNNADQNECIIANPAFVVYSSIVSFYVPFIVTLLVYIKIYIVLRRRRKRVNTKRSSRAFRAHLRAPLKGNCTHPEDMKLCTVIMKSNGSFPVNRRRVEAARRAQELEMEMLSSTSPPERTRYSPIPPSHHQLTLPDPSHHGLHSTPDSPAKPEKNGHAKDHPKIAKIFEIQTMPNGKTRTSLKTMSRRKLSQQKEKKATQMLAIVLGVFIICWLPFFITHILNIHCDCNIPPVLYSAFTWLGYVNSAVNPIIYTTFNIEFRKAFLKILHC
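Agonist mode: compounds alone added to overnight-plated D2 PathHunter cells for 90 min at 37 C, with 57 uM final dopamine (EC100) defining full response. Beta-arrestin recruitment detected by chemiluminescent reagent, read after 1 h at ambient temperature.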
gsp antagonist: antagonizes gsp, the McCune-Albright syndrome mutation; Potency, µM (series often up to 76.9 µM), inactives show at the top dose activity change, negative = inhibition, usual class: inhibitors; gsp-mutant cells, cAMP HTRF, 30 min; control for the full effect not named in the record; hit rate 0.4% among 340,000; active = falling curve of any shape with a large fitted effect; inconclusive = falling curve, mostly with a smaller effect; inactive = flat or rising curve; cell line not stated here;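 further: intracellular cAMP measured with PDE inhibitor Ro 20-1724 present during compound exposure; potency means the concentration at half of the fitted maximal effect; on the % scale 0 is the no-effect control and ±100 the full control effect; nearly all actives have a fitted effect of over 65% in size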
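Cells, 2000/well, grown 16–24 h in DMEM 10% FBS with 0.5 mg/ml G418, then compounds plus […] (300 uM addition stock), 30 min at 37C. cAMP read by HTRF (cAMP-d2 and anti-cAMP antibody-K in lysis buffer) after 30 min RT.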
PINK1 expr mod: PINK1 expression modulation. Potency, µM (doses to about 76.6 µM), for the others: top-dose activation (PINK1 increase), actives largely listed as activators. PINK1 immunofluorescence, high-content cytometry, 24 h. hit rate 0.2% among 410,000. AID 624263; active = well fitted activation curve with a large enough effect; inconclusive = small, poorly fitted or top-dose-only effect; inactive = flat fitted curve, though single readings scatter; cell line not stated here;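 further: potency means the concentration at half of the fitted maximal effect; % of control where 0% means no effect; nearly all actives have a fitted effect of over 65% in size; a mitochondrial uncoupler was the plate control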
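PINK1 protein, normally rapidly degraded, was detected by immunofluorescence after 24 hour compound treatment of a stable cell line. Titration data (5 concentrations) came from laser-scanning cytometry, with CCCP-treated wells as controls.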
Starred values were filed as active, the others as inactive; ? = inconclusive; nt = not tested or not shown; & = joins results of further samples; [ ] = dose if it differs, or a comment. Rows are unselected; 5.1% or so of the library scored in one or more.

SMILES	Sfp inh	gsp ag	ClpP mod	Menin-MLL FL inh	D2 ag	gsp antagonist	PINK1 expr mod
COC(=O)c1scc2c(Oc3ccccc3)cc(C(F)(F)F)nc12	-16%	-50%[inhibitor][15.4 µM]	nt	0.0	-3.6	-6%	2.1%
COc1cc(NS(=O)(=O)c2ccc3ccccc3c2)c2ncccc2c1	14%&27%	14%[15.4 µM]	-1.3%	1.9&-0.7	0.7	-6%	6.8%
CS(=O)(=O)n1nc(OC(=O)c2cccs2)cc1N	-24%	-41%[inhibitor]	0.0%	4.3	0.0	8%	2.5%
CCOc1ccc(N(C(=O)C2CCCO2)C2C=CS(=O)(=O)C2)cc1 (stereo unspecified)	22%	4%[15.4 µM]	nt	2.9	-3.1	11%	0.3%
COc1ccc(CSCC(=O)N/N=C/c2ccc(OCC(=O)N3CCCCC3)cc2)cc1	11%	1%	-0.9%	3.2	0.4	-21%	1.1%[38.3 µM]
CN(c1ccc(OCC(=O)NC2=NCCS2)cc1)S(=O)(=O)c1ccc(F)cc1	3%	23%	-1.6%	-0.6	-1.9	-2%	-1.8%
Cc1cc(=O)oc2cc(OCC(=O)OCC(=O)NCc3ccc4c(c3)OCO4)ccc12	-4%	15%	199%	0.0	-3.8	?	0.4%
c1ccc(CN2CCN(c3ncnc4nc[nH]c34)CC2)cc1	18%	17%	-2.2%	-7.9	9.9	1%	3.7%
O=C(C=C=Nc1ccccc1)C(=O)N=C=Cc1ccccc1	-1%	18%[15.4 µM]	nt	1.6	-3.8	-12%	2.2%
CC(=O)C1=C(C)Nc2cc(C(F)(F)F)ccc2S1	56µM*	-2%	-1.6%	0.0	0.8	2%	-0.5%
Cc1ccc(CNC(=O)c2cc(-c3ccccc3C)nn2CC2CC(c3cccnc3)=NO2)cc1 (stereo unspecified)	nt	nt	1.0%	nt	3.6	-12%	1.9%
O=C(Nc1ccc(CN2CCCCC2)cc1)Nc1ccccc1Cl	1%	-4%	0.5%	-1.9	-3.8	19%	5.5%
CCn1c2ccccc2c2cc(NC(=O)CNCc3ccccc3OC)ccc21	-19%	15%	nt	2.9	-1.6	22%	17%
CCOc1ccc(NC(=O)c2cnsn2)cc1	18%	29%	-1.3%	5.9	-0.5	16%	0.3%
Cn1cccc1C(=O)Nc1nccs1	11%	0%	-1.5%	2.2	0.7	2%	0.3%
COc1cccc(/C=C2\SC(=N)N(c3ccc(F)cc3)C2=O)c1	19%	19%[15.4 µM]	nt	-0.9	-4.6	-23%	5.7%
O=C(NCCOc1ccc(Cl)cc1)C1CC(=O)N(c2ccc(F)cc2)C1 (stereo unspecified)	-20%	-24%	0.7%	3.9	1.9	-16%	1.5%[38.3 µM]
CCOC(=O)c1cn(CC)c2ccc(Br)cc2c1=O	5%	3%	0.7%	-1.2	-0.8	1%	-0.5%[38.3 µM]
CC(/C=N/N1C(=O)CSC1=S)=C\c1ccccc1	-11%	21%[15.4 µM]	nt	19	3.1	-2%	0.1%
Cc1ccc(CC(=O)Nc2nc3ccccc3[nH]2)cc1C	5%	-6%	-1.5%	4.0	0.6	-5%	2.5%
Cn1c(CN2CCCC2)nc2cc(NC(=O)c3cccs3)ccc21	-20%	10%	-6.2%	2.5	-1.9	4%	-1.0%
COc1ccc(N2CCN(Cc3nc4ccccc4n3C)CC2)cc1	1%	-36%[inhibitor]	3.0%	2.3	-5.3	-8%	0.0%
COc1cc(OC)c(N(C)S(=O)(=O)c2cccc(C(=O)Nc3nc(C)cs3)c2)cc1Cl	nt	7%	-1.9%	nt	9.8	?	3.0%
O=[N+]([O-])c1ccc(Cl)cc1N/N=C/c1ccncc1	-6%	-29%	-0.7%	3.7	-5.2	-2%	-0.5%
Cc1ccc2c(c1)N(CCCC(=O)NCc1cccnc1)C(=O)CO2	1%	9%	-0.3%	-2.3	-3.8	5%	-0.1%
COC(=O)N1CCc2c(sc(NC(=O)C3=COCCO3)c2C#N)C1	nt	-11%[15.4 µM]	1.5%	nt	-9.1	17%	3.2%
Cc1cccc(C)c1NC(=O)CNC(=O)c1ccc2c(c1)NC(=O)CS2	nt	2%[15.4 µM]	1.4%	nt	-0.7	-13%	2.6%
O=C(CCCNC(=O)c1ccc(Cl)cc1)Nc1cccc(S(=O)(=O)N2CCCCC2)c1	nt	-14%	-1.0%	nt	1.2	-6%	1.5%
NS(=O)(=O)c1ccc(CCNCC#Cc2ccccc2)cc1	0%	-13%	-2.0%	-1.7	-5.3	6%	-1.0%
COc1ccc(C(=O)OCC(=O)NC23CC4CC(CC(C4)C2)C3)c(O)c1	nt	-39%[inhibitor]	-2.5%	nt	2.4	nt	?
CCN(C[C@H]1N[C@@](CC)(C(=O)OC)[C@H]2C(=O)N(Cc3ccccc3)C(=O)[C@@H]12)S(=O)(=O)c1ccccc1	nt	nt	2.2%	nt	-0.7	-13%	1.1%
Cc1ccc2cc(CCNC(=O)C(C)(C)C)c(=O)[nH]c2c1	-24%	4%	-20%	-2.3	-0.1	3%	1.2%
O=C(NC1CCCCC1)N1CCC(c2nc(-c3ccc(S(=O)(=O)N4CCCC4)cc3)no2)CC1	27%	-38%[inhibitor]	-2.1%	1.4	-0.7	-5%	13%
O=C(CCCC(=O)N(CC(=O)NC1CCCC1)c1cccc(F)c1)Nc1ccccn1	6%	3%	nt	-2.7	1.8	4%	4.2%
CCO[C@@H]1OC(C(=O)N2CCN(C)CC2)=C[C@H](c2ccc(C(F)(F)F)cc2)[C@H]1CCCO	14%	nt	-1.6%	-0.8	-2.4	1%	1.4%
COc1ccc(NC(=S)Nc2cccc(Cl)c2Cl)cc1OC	-19%	-4%	-1.3%	-0.4	-2.9	-4%	-0.9%
O=C(c1ccncc1)N1CCC[C@@]2(CCN(c3ccncc3)C2)C1	22%	nt	nt	-9.3	nt	nt	-0.8%
Cc1[nH]c(=O)[nH]c(=O)c1S(=O)(=O)N1CCN(c2ccccc2F)CC1	6%	2%	-3.4%	1.9	0.2	-5%	0.3%[38.3 µM]
CCNS(=O)(=O)c1ccc(NC(=O)c2ccc(Cn3cc(Br)cn3)o2)cc1	3%	-9%	-0.2%	-0.9	3.1	-21%	-1.4%
c1cc(OCCCN2CCCCC2)ccc1CN1CCCCC1	5%	14%[15.4 µM]	nt	-1.5	-0.2	-10%	1.9%
COC(=O)c1ccccc1NC(=O)c1ccc2c(c1)C(=O)N(Cc1ccco1)C2=O	nt	0%	28µM*	nt	0.0	8%	-0.5%
Nc1ccc(N)c(C(=O)O)c1	?	?	-25%	-5.9	4.3	-6%	-0.8%
O=S(=O)(c1ccccc1)N1CCN(c2cc(-c3ccccc3)nc3ncnn23)CC1	1%	-2%	-27%	16	-0.8	3.5µM*	2.5%[38.3 µM]
CCSC1=C(C#N)C2(CCCC2)C(C#N)=C(N)N1	?	-1%	-24%	3.6	-1.0	3%	2.2%
CCc1noc(C)c1C(=O)OCC(=O)c1ccc(NC(C)=O)cc1F	nt	-12%	nt	nt	-1.7	0%	-0.3%
CC1CCN(C(=O)CSc2nnc(CN3CCOCC3)n2-c2ccccc2)CC1	71µM*	9%	1.0%	0.5	-2.6	-5%	-0.8%[38.3 µM]
NC(=O)c1ccsc1NC(=O)CSc1nnc2ccccn12	-7%	2%	-1.0%	4.8	0.4	-2%	-1.1%
O=c1[nH]c(Sc2ccc([N+](=O)[O-])cc2[N+](=O)[O-])nc2ccccc12	nt	2%	-3.2%	nt	?	0%	2.9%
CCNc1ncc2nc(-c3cc(F)cc(F)c3)c(=O)n(-c3ccccc3)c2n1	12%	nt	nt	?	nt	nt	5.2%
O=C(CCOc1ccccc1)Nc1ccnn1C1CCN(C(=O)CCC(F)(F)F)CC1	14%	3%	2.3%	nt	0.6	-8%	1.7%
COC(=O)c1ccccc1NS(=O)(=O)c1ccc2c3c(cccc13)C(=O)N2	-19%	?	-20%	2.9	2.8	-7%	?
O=C(Nc1ccc2c(c1)OCO2)C1CCCN(S(=O)(=O)c2cccs2)C1 (stereo unspecified)	21%	11%	-15%	2.8	0.0	-6%[15.4 µM]	0.6%
Cc1ccc(-c2nc3ccccc3[nH]2)cc1NC(=O)/C=C/c1ccco1	50µM*	-1%	-8.3%	8.7	4.0	-2%	7.3%[38.3 µM]
Cc1ccc(-c2nnn(CC(=O)NC3CCCc4ccccc43)n2)cc1 (stereo unspecified)	10%	-6%	-0.8%	6.8	0.9	21%	-0.9%
CCN(CC)c1ccc(N)cc1S(=O)(=O)Nc1ccccc1OC	11µM*	1%[15.4 µM]	nt	3.3	-0.6	7%	0.2%
Cc1cc(NCc2ccccn2)n2ncc(-c3ccccc3)c2n1	13%	?	nt	3.6	1.5	-6%	2.0%
CCCCc1cc(=O)oc2cc(C)cc(OCC(=O)N[C@@H](CSCc3ccccc3)C(=O)O)c12	8%	nt	4.7%	0.0	8.6	-7%	-0.2%
COC(=O)c1ccc(NC(=O)CSc2nnc(C)n2-c2ccccc2)cc1	-27%	-10%	-0.7%	-0.9	-3.7	0%	0.4%[38.3 µM]
CC(NC(=O)c1ccc(Br)s1)c1ccncc1 (stereo unspecified)	0%	-20%[15.4 µM]	-2.1%	2.0	-1.8	-5%	1.1%
CCN1C(=O)CS/C1=C(\C#N)S(=O)(=O)c1ccccc1	16%	-13%	-2.0%	?	-2.3	-8%	2.4%

Going on with the list.
SMILES	Sfp inh	gsp ag	ClpP mod	Menin-MLL FL inh	D2 ag	gsp antagonist	PINK1 expr mod
COc1cc(-n2c(C)nc3cccnc32)c(Cl)cc1C(=O)O	-2%	-25%	?	-7.5	-3.1	13%	0.8%
CCCc1cc(=O)[nH]c(SCC(=O)N2CCN(S(=O)(=O)c3ccc(C)cc3C)CC2)n1	6%	18%	-3.3%	5.9	0.6	-12%	3.6%
C[C@H](O)[C@@H]1C(=O)N2CCc3ccc(N4CCN(C)CC4)cc3[C@@H]2C[C@@H]1N(C)C(=O)c1cccnc1	nt	-48%	0.8%	nt	-5.9	nt	1.3%
Cc1cc(Cl)ccc1OCc1cn2cccnc2n1	11%	3%[15.4 µM]	nt	-4.1	-1.2	14%	1.6%
CCOc1ccc(NC(=O)COC(=O)Cc2ccsc2)cc1	nt	14%	-0.5%	nt	-1.2	-7%	0.6%
CCOC(=O)c1ccc(-n2cncn2)nc1	15%	1%	-0.9%	0.9	-1.0	-7%	-0.3%
